# Source: PubChem BioAssay (National Center for Advancing Translational Sciences (NCATS))
# TSHR agonist: TSH receptor (human) agonism; P16473; HEK293-CNG-TSHR cells (CNG channel as cAMP sensor), membrane potential dye, cAMP; Potency, µM (series often up to 57.1 µM), for inactives: at the highest dose activation, most hits filed as activators; actives 0.48% (n = 73,000); AID 926; active = well fitted activation curve of enough size with the parental cells flat; inconclusive = any curve in the parental cells; inactive = parental cells flat and receptor cells flat or falling; note: potency is the fitted concentration of half-maximal effect; % of control where 0% means no effect; weak receptor curves with flat parental cells got no call and are not listed
# Target sequence (P16473 whole entry, looked up): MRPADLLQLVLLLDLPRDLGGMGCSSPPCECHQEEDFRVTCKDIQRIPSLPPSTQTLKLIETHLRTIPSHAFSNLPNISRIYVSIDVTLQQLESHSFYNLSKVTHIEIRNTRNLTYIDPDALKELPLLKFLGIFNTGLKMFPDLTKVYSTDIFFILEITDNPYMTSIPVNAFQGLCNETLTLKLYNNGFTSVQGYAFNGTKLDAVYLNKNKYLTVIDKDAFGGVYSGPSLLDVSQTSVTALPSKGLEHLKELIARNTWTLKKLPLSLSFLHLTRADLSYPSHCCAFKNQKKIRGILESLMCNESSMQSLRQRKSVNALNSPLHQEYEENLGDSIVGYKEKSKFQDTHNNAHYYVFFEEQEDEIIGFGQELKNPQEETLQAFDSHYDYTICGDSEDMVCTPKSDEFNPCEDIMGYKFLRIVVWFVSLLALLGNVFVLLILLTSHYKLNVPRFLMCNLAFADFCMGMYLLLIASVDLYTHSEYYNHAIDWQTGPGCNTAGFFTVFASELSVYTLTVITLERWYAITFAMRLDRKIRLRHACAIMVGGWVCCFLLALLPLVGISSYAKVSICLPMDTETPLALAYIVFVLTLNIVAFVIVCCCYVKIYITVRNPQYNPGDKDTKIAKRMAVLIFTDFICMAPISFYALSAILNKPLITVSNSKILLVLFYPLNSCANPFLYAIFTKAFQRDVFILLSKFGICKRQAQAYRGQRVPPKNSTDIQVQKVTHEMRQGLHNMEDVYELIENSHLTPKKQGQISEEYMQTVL
#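 HEK 293 cells stably expressing TSHR and a modified CNG channel, with CNG-only parental cells as counterscreen, were preloaded 60 min at room temperature with membrane potential dye containing 100 uM RO 20-1724. Compound exposure was 30 min, and depolarization was read as fluorescence at 590 nm.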
# A488 autofl: A488 region autofluorescence; compound autofluorescence, A488 spectral region, dye equivalency; hits give high values; max dye equivalency, M; actives 0.1% (n = 59,000); AID 591; active = above 10 nM dye equivalent; inconclusive = 1 to 10 nM; inactive = 1 nM or less; about half of its hits are not listed in these tables;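 note: highest value over a series up to 38 µM; compound alone in buffer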
#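 Compounds pin-transferred into 100 mM Tris buffer, pH 8.0, incubated 15 min at room temperature, then imaged with 480 nm excitation/540 nm emission filters. Fluorescence converted to Alexa 488 dye-equivalent concentration via an on-plate six-point A488 standard curve.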
# Resorufin fluor: resorufin region autofluorescence | Compound fluorescence, resorufin region 547/598 nm, buffer; hits give high values | max dye-equivalent concentration, M | actives 0.04% (n = 59,000) | AID 588; active = above 10 nM dye equivalent; inconclusive = 1 to 10 nM; inactive = 1 nM or less; a few of its hits are not listed in these tables; note: highest value over a series up to 38 µM
#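 Tris 100 mM pH 8.0; compound added, 15 min RT; CCD imager read, ex 547 nm/em 598 nm; signal normalized to resorufin standard curve (six concentrations per plate) as dye-equivalent concentration.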
# AID923: qHTS Assay for Allosteric/Competitive Inhibitors of Caspase-1: Spectroscopic Profiling in AFC Spectral Region; compound fluorescence, AFC spectral region (405/520 nm); almost no hit is shown here; Potency, µM (doses to about 57.5 µM), for inactives: top-dose fluorescence increase, most hits filed as activators; actives 1.1% (n = 75,000); AID 923, 2007; active = well fitted activation curve with a large enough effect; inconclusive = small, poorly fitted or top-dose-only effect;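 note: potency is the fitted concentration of half-maximal effect; 0% is about no effect; scaled to a free AFC standard on each plate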
#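 Baseline compound fluorescence (AFC region, 405 nm ex/520 nm em) taken from the intercept of kinetic reads with 50 nM caspase-1 and 5 uM Ac-WEHD-AFC; normalized to an on-plate AFC standard curve; compounds titrated up to 57 uM.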
# A647 fluor: A647 region autofluorescence. Compound fluorescence, A647 channel (570/671 nm), Tris buffer. max dye-equivalent concentration, M. 59,000 tested, under 10 active. AID 592; active means above 1 µM dye equivalent; inconclusive means 0.1 to 1 µM; inactive means 0.1 µM or less;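 note: values scaled relative to a standard on each plate; highest value over a series up to 38 µM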
#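 Buffer was dispensed, compounds and Alexa 647 standards were pin-transferred, and plates sat 15 min at room temperature. Intensity at 570/671 nm was then converted to dye-equivalent concentration using the plate's A647 standard curve.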
# Numbers without * were called inactive; i = inactive; ? = inconclusive; nt = not tested or not shown; & = joins results of further samples; [ ] = remark or other dose. Some of the compounds tested. The share of hits here may be higher or lower than overall.
SMILES,TSHR agonist,A488 autofl,Resorufin fluor,AID923,A647 fluor
COc1ccc(S(=O)(=O)N(CC(=O)N2CCOCC2)c2cc(Cl)ccc2OC)cc1OC,-3%,i,i,-0.3%,3.3e-08
COc1ccccc1N1CCN(C(=O)CCCn2c(=O)[nH]c3ccsc3c2=O)CC1,0%,nt,nt,-0.7%,nt
COC(=O)C/C=C\[C@@H](C)[C@@H](/C=N\OCC[C@H]1C=C[C@H](OC(C)=O)[C@@H](COC(C)=O)O1)NS(=O)(=O)c1ccc(C)cc1,-3%[11.4 µM],nt,nt,-1.7%[11.5 µM],nt
Cc1cccc(OC(C)C(=O)N(Cc2cccs2)C2CCS(=O)(=O)C2)c1C (stereo not drawn),13%,i,i,1.2%,9.5e-09
COc1ccc(Nc2nc(C(=O)NCCCN3CCOCC3)cs2)cc1,-10%,i,i,-0.5%,1e-09
CCc1nnc(NC(=O)C2CCN(C(=O)NC3CCCCC3)CC2)s1,-1%,i,i,-1.2%,1e-09
O=C(CCC(=O)N1CCN(S(=O)(=O)c2ccccc2)CC1)c1cccs1,-1%,i,i,0.8%,7.1e-09
O=C(c1ccco1)N1CCN(C(c2ccc(F)cc2)c2nnnn2CC2CCCO2)CC1 (stereo not drawn),-1%,i,i,-0.7%,1e-09
O=C(CSCc1ccc(Cl)cc1)NCC1CCCO1 (stereo not drawn),-1%,nt,nt,0.5%,nt
Nc1ccc(-c2nnc(-c3ccc(-c4ccccc4)cc3)o2)cc1,-9%,i,i,0.1%,3.5e-08
COc1ccc(OC)c(C(=O)COC(=O)C2CC3CCCC(C2)C3=O)c1 (stereo not drawn),-3%,i,i,0.3%,1e-09
Cn1c(=O)cc(OCCCC(=O)NC2CCCC2)c2ccccc21,2%[11.4 µM],i,i,-0.5%,1.9e-08
Cc1ccccc1C1=NC(c2ccc(F)cc2F)ON1 (stereo not drawn),11%,i,i,-0.9%,5.9e-09
O=C(NCc1cccnc1)c1ccc(CS(=O)(=O)c2ccc(Br)cc2)o1,?,nt,nt,0.8%,nt
C=CCNC(=O)COc1ccc(Br)cc1Cl,7%,nt,nt,-0.5%,nt
COc1cccc(C(=O)Nc2ccc(-c3nc4ccccc4o3)c(O)c2)c1,30%,nt,nt,6.5%,nt
O=C(c1cc2ccccc2oc1=O)N(Cc1ccco1)CC1CCCO1 (stereo not drawn),0%,i,i,0.7%,1e-09
CC(C)(Oc1ccc(Cl)cc1)C(=O)NCc1ccco1,12%,nt,nt,-0.4%,nt
Clc1ccccc1-c1nnc2sc(-c3ccco3)nn12,nt,i,i,nt,1e-09
O=c1o[nH]c(-c2ccccc2)c1C1=NCCCCC1,?,i,i,1.5%,2.6e-08
COCc1cc(C)nc2sc3c(=O)n(Cc4ccco4)nnc3c12,4%,nt,nt,2.1%,nt
COc1ccc(NC(=O)Nc2nnc(N3CCCCC3C)s2)cc1OC (stereo not drawn),-1%,nt,nt,1.3%,nt
CC1(C)Cc2c(c(N3CCOCC3)nc3sc4c(=O)[nH]cnc4c23)CS1,nt,i,i,nt,2.4e-08
CCC(=O)Nc1ccc(NC(=O)C23CC4CC(CC(C4)C2)C3)cn1,?,i,i,0.2%,1.6e-08
CCn1cc(C(=O)NCCN(C)CCc2ccccc2)c(=O)c2cc(S(=O)(=O)N(C)C)ccc21,7%,i,i,-0.3%,2.9e-08

# In the list so far, two have fluorine.
SMILES,TSHR agonist,A488 autofl,Resorufin fluor,AID923,A647 fluor
O=C(c1ccco1)N1CCN(C(c2ccc(F)cc2)c2nnnn2CC2CCCO2)CC1 (stereo not drawn),-1%,i,i,-0.7%,1e-09
Cc1ccccc1C1=NC(c2ccc(F)cc2F)ON1 (stereo not drawn),11%,i,i,-0.9%,5.9e-09

# The listing continues:
SMILES,TSHR agonist,A488 autofl,Resorufin fluor,AID923,A647 fluor
O=S(=O)(c1ccccc1)c1nc(-c2ccccc2)oc1NCc1cccnc1,3%,i,i,-0.5%,8e-09
Cc1cc(C)cc(CC2CC(=O)N(c3ccc4c(c3)OCCO4)C2=O)c1 (stereo not drawn),nt,i,i,2.6%,1e-09
Cc1ccccc1S(=O)(=O)Cc1ccc(C(=O)N2CCN(C3CCCCC3)CC2)o1,10%,nt,nt,-0.3%,nt
Cc1cc(C)c2c(=O)n(CC(=O)NCCCN3CCOCC3)sc2n1,?,nt,nt,2.4%,nt
CCOC(=O)c1[nH]c(C)c(/C(O)=C2\C(=O)C(=O)N(CCN(C)C)C2c2cccc(OC)c2OC)c1C (stereo not drawn),2%,i,i,-0.9%,3.2e-09
Cc1nc(CSc2nnc3scc(-c4ccc(Cl)cc4)n23)cs1,19%,i,i,-2.4%,1e-09
O=C(CCN1c2ccccc2Sc2ccccc21)OCc1nnc(-c2ccccc2)o1,10%,i,i,1.6%,2.5e-09
c1cncc(-c2nnc(C3CCCCC3)o2)c1,3%,i,i,0.3%,5.1e-09
CSC1=NCCN1C(=O)COc1ccccc1,10%,nt,nt,2.8%,nt
CCC(=O)c1ccc(OCCSc2ncccn2)cc1,6%,i,i,0.9%,1e-08
COc1ccc(NC(=O)CNS(=O)(=O)c2ccccc2)cc1Cl,?,i,i,0.0%,1e-09
CCCC(=O)N1CCN(c2ccc(NC(=O)c3ccco3)cc2)CC1,-6%,i,i,-0.6%,1.1e-08
CCn1cc(C(=O)NCc2ccc(C)o2)c2cc(OC)c(OC)cc2c1=O,1%[11.4 µM],i,i,-0.8%,1e-09
COC(=O)CCCCCN1C(=O)NC(c2ccccc2)C(C(=O)OCc2ccccc2)=C1C (stereo not drawn),4%,nt,nt,-0.4%,nt
Cc1cc(C(=O)Oc2ccccc2C(=O)O)c(C)o1,0%,i,i,-1.1%,1e-09
Cc1ccc(-c2nnc(SCC(=O)N3CCCC3)o2)cc1C,7%,i,i,-1.7%,1.7e-08
CCOc1cccc(C(=O)Nc2cc(-c3nn4c(C)nnc4s3)ccc2C)c1,8%,nt,nt,-2.3%,nt
COc1ccccc1-c1nc(C#N)c(NCc2ccc(F)cc2)o1,9%,i,i,3.4%,8.9e-09
O=c1[nH]c(-c2ccccc2O)nc2c1CCCC2,?,i,i,0.5%,4.3e-08
C1=CC2CC1CC2CNCc1ccco1 (stereo not drawn),5%,i,i,0.5%,1.1e-08
COc1ccc(C2CC(=O)C=C(NCC3CCCO3)C2)cc1 (stereo not drawn),4%,nt,nt,1.2%,nt
Cn1c(N)c(N=Nc2ccc(S(N)(=O)=O)cc2)c(=O)n(C)c1=O,-2%[11.4 µM],i,i,1.1%[11.5 µM],1e-09
CCOC(=O)C1CCCN(C(=O)c2ccccc2NC(C)=O)C1 (stereo not drawn),?,i,i,-0.7%,1.2e-08
N#CC1=C2SCN(c3ccccc3)CN2C(=O)CC1c1c(Cl)cccc1Cl (stereo not drawn),-7%,nt,nt,-1.4%,nt
NC(=O)OCC(COC(N)=O)c1ccccc1,-3%&9%,i,i,-1.4%,3.4e-09&1.9e-09

# More structures
SMILES,TSHR agonist,A488 autofl,Resorufin fluor,AID923,A647 fluor
CC1CCCCC1NC(=O)C1Cc2ccccc2CN1S(C)(=O)=O (stereo not drawn),?,i,i,-0.1%,2.9e-09
CC(C)c1nnc(SCc2ccc(CSc3nnc(C(C)C)n3N)cc2)n1N,-9%,i,i,4.2%,1e-09
O=C(c1ccncc1)N(Cc1cc2ccccc2[nH]c1=O)C1CCCCC1,19%,i,i,-0.8%,7.4e-09
CC(C)Nc1nnc(SCC(=O)Nc2ccc(F)cc2)s1,?,i,i,-0.1%,3.4e-08
CCCC(c1nnnn1CCOC)N1CCN(c2cccc(OC)c2)CC1 (stereo not drawn),-1%,i,i,0.8%,3.1e-08
Cn1c(=O)c2ncn(CC(=O)NCCC3=CCCCC3)c2n(C)c1=O,10%,i,i,-0.5%,2.3e-08
CCOc1ccc(C(=O)C2CCN(CC(=O)Nc3ccccc3N3CCOCC3)CC2)cc1,5%,i,i,-0.3%,4.2e-08
O=C(Nc1cccc(-c2nnc(-c3ccccc3)o2)c1)c1ccc(Br)o1,?,i,i,-0.5%,1.5e-08
COc1cc(NC(=O)c2ccc(-c3ccc(Br)cc3)o2)ccc1NC(=O)C(C)C,?,i,i,5.6%,3.2e-09
CCC1SC2=NCN(c3ccccc3)CN2C1=O (stereo not drawn),1%,i,i,-1.2%,1.9e-08
CSCC[C@H](NC(=O)Nc1ccc(C)cc1)C(=O)O,nt,i,i,0.9%,1e-09
COc1ccccc1NC(=O)CCC(=O)Nc1nnc(C(F)(F)F)s1,nt,i,i,1.4%,2.7e-08
Cc1cc(N2CCN(c3ccccn3)CC2)n2nc(C)nc2n1,17%,i,i,-2.1%,3.1e-08
O=C(Nc1nc2ccccc2s1)C1CCCN1S(=O)(=O)c1ccc(Cl)cc1 (stereo not drawn),nt,i,i,-0.4%,1.8e-08
CC[C@H](C)[C@@H]1O[C@]2(CC[C@@H]1C)C[C@H]1C[C@H](CC=C(C)[C@@H](O[C@@H]3C[C@H](OC)[C@H](O[C@@H]4C[C@H](OC)[C@H](O)[C@H](C)O4)[C@H](C)O3)[C@@H](C)C=CC=C3CO[C@@H]4[C@@H](O)C(C)=C[C@@H](C(=O)O1)[C@]34O)O2,-18%[25.6 µM],i,i,1.2%[25.7 µM],2.6e-08
CC(C)Nc1nc(NC(C)C)nc(C(N)=O)n1,3%,i,i,-0.5%,1e-08
Cc1ccccc1-c1nc(NCCN2CCOCC2)c2ccccc2n1,0%,i,i,-1.1%,1e-09
Cc1cc(NC(=O)c2noc3c2CCCC3)n(-c2ccccc2)n1,9%,i,i,-1.7%,1e-09
COc1cc2c(cc1OC)CN(C(=O)CSc1n[nH]c(N)n1)CC2,-4%,i,i,-2.3%,2.4e-09
Cn1nc(C(=O)NCCN2CCOCC2)c2ccccc2c1=O,4%,i,i,0.0%,1e-09
CCOC(=O)Cn1ncc(-c2ccccc2)c1N,0%,i,i,1.4%,3.8e-08
COc1ccc(NC(=O)CSc2nnc(Cc3cccn3C)n2-c2ccc(F)cc2)cc1,-4%,nt,nt,-0.4%,nt
COc1ccc(NC(=O)CN(c2cc(C)cc(C)c2)S(=O)(=O)c2c(C)noc2C)cc1OC,21%,nt,nt,-1.5%,nt
c1nc2nc3c(c(N4CCOCC4)n2n1)CCCC3,2%,i,i,-0.5%,4.6e-08
CCOC(=O)c1ccc(NC(=O)NC2CC3CCC(C2)N3Cc2nnnn2C(C)(C)C)cc1 (stereo not drawn),-3%,i,i,1.0%,1.1e-08

# The listing continues.
SMILES,TSHR agonist,A488 autofl,Resorufin fluor,AID923,A647 fluor
O=C(Nc1ccccc1Cl)N1CCN(c2ncccn2)CC1,5%,i,i,6.4%,1.8e-08
CCOC(=O)CCN1C(=O)[C@H]2[C@H]3[C@H](O)[C@H](O)C/C(=N/OCC(C)C)[C@H]3CC[C@@H]2C1=O,-2%[11.4 µM],nt,nt,-2.2%[11.5 µM],nt
CCN(CC)CCCCOc1ccccc1OC,3%,nt,nt,1.9%,nt
COc1ccc(C(=O)N2CCN(C(=O)Cc3ccccc3)CC2)cc1OC,0%,i,i,-0.3%,3.4e-09
CCCCOc1ccc(C(=O)Nc2ccc(S(=O)(=O)Nc3cc(C)on3)cc2)cc1OC,1%,i,i,-2.3%,1.2e-08
COCC(=O)Nc1nc2ccc(C)cc2s1,-7%,i,i,0.3%,1e-09

# Shown with two lines to a compound: entries from further up
# Value order – TSHR agonist, A488 autofl, Resorufin fluor, AID923, A647 fluor
CCN(CC)CCCCOc1ccccc1OC
  3%, nt, nt, 1.9%, nt
COc1ccc(C(=O)N2CCN(C(=O)Cc3ccccc3)CC2)cc1OC
  0%, i, i, -0.3%, 3.4e-09
CCCCOc1ccc(C(=O)Nc2ccc(S(=O)(=O)Nc3cc(C)on3)cc2)cc1OC
  1%, i, i, -2.3%, 1.2e-08
